Screens deposited in PubChem BioAssay by several laboratories.
MLL AF4-AF9 inh: inhibitors of human MLL-AF4/AF9 interaction; inhibition, % at 10 µM; AID 651704; AlphaScreen, biotin-AF4 peptide binding to FLAG-AF9; P42568; 350,000 compounds, 0.47% hits;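 active means every replicate reaching a set inhibition limit, whatever the replicate mean, cut at about 25% in these data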;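 further: 0% = plate neutral control median and 100% = total signal loss; the record names both 10 and 1 µM as test concentration; the first replicate is given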
FGF22 binding: FGF22 (human) thermal shift binding; calls only at 9.99 µM; recombinant FGF22 thermal shift, SYPRO orange fluorescence; percent of sucrose octasulfate shift, DMSO zero; Q9HCT0; AID 651658; 340,000 compounds, 1.5% hits;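 active means melting point raised past a set limit in the mean and every replicate; three in four hits are not shown here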
Target sequence (Q9HCT0 whole entry, looked up): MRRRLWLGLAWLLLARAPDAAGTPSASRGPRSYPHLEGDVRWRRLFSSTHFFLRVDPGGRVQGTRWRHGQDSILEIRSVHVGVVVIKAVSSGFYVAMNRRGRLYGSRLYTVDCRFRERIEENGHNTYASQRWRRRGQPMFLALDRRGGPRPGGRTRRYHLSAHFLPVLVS
Vif TR-FRET: HIV-1 Vif–A3G interaction blockers – biochemical, TR-FRET, GST-Vif 1-94, biotin-A3G peptide, dose response retest, primary screen (AID 1117319); TR-FRET GST-Vif / biotin-A3G peptide binding; higher % means a stronger effect; test concentration not given here; strong numbers were not always called active; inhibition, %; hits with a dose series show IC50 in µM; 260,000 compounds, 0.57% hits;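 active means above the screen mean plus three standard deviations and confirmed in dose response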;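 further: Vif residues 1-94 fused to GST binding biotinylated APOBEC3G peptide 110-148; 0% = full assay without inhibitor and 100% = GST in place of GST-Vif; retest series ran down from 100 µM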
E coli growth: blocks Escherichia coli growth. OD600, 23 h; active compounds read low. OD600 absorbance (concentration not given with the values). 330,000 compounds, 0.21% hits;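 active means OD600 absorbance below the run mean of sample wells minus 3.6 SD, in any replicate, cut at about 0.56 in these data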;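 further: stock transfer was 300 nL into about 60 µL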
HNF4A DNA FP: change in binding of human HNF4 alpha to DNA. activity change, % at 10 µM. HNF4a-FITC DNA binding, fluorescence polarization, 1 h. 360,000 compounds, 0.3% hits; in the data active means activity change above about 30%, passing the limit was not always enough;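 further: controls were the assay level and a saturating level of protein; the project sought stronger binding though the title names inhibitors; some compounds called inactive have numbers as strong as hits; positive values seem to mean higher polarization but the record does not say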
Target sequence (P41235 whole entry, looked up): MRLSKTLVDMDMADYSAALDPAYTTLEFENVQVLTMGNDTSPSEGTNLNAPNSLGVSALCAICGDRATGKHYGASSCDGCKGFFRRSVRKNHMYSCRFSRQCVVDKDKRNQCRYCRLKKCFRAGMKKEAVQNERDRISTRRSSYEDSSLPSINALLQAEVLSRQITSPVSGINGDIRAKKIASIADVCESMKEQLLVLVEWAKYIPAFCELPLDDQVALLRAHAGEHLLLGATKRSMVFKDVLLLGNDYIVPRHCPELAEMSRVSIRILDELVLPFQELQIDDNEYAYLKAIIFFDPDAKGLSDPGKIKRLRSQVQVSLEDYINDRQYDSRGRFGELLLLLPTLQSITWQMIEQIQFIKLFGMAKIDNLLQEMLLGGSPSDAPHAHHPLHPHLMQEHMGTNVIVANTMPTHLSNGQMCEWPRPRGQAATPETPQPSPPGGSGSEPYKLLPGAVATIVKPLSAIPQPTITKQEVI
Ecoli rRNA inh: inhibitors of bacterial rRNA selective over humanized ribosomes; E. coli WT GFP vs humanized-ribosome RFP mutants, fluorescence, 24 h; active compounds read low; DMSO median 0, no signal -100; GFP signal change (wild-type ribosome), % (no concentration beside the values); 350,000 compounds, 1.6% hits;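 active means significant combined selectivity score with lowered wild-type GFP, culture density cut under 30%, mutant RFP and density less affected; inactive means any of these conditions unmet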; further: one replicate is shown; some compounds called inactive have numbers as strong as hits
ALR H2O2 inh: inhibitors of human sulfhydryl oxidase ALR. P55789. 290,000 compounds, 3.8% hits. inhibition, % (concentration not given with the values). AID 485317. purified ALR, DTT oxidation, H2O2 HRP-luminol luminescence;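 active means mean and each replicate at 75% or more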;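 further: stock transfer was 7.5 nL into about 7.5 µL; 0% = neutral wells and 100% = wells with inactivated enzyme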
Target sequence (P55789 whole entry, looked up): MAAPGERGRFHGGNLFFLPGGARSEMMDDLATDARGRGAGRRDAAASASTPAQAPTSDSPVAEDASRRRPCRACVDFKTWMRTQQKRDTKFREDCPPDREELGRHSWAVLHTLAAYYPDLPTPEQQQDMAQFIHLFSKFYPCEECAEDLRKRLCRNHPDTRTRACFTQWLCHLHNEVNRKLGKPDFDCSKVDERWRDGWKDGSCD
Ecoli rRNA inh OD600: further read-out of Ecoli rRNA inh, marked with its call; OD600 change, %; measured here: OD600 growth;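 optical density of the mix in the first replicate; 0 = DMSO median and -100 = no signal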
Ecoli rRNA inh RFP: recorded beside Ecoli rRNA inh, whose call it bears; RFP signal change, %; measured here: RFP humanized mutant strains;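 first replicate; 0 = DMSO median and -100 = no signal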
Numbers without * were called inactive; i = inactive; . = not tested or not shown.

SMILES	MLL AF4-AF9 inh	FGF22 binding	Vif TR-FRET	E coli growth	HNF4A DNA FP	Ecoli rRNA inh	Ecoli rRNA inh OD600	Ecoli rRNA inh RFP	ALR H2O2 inh
COc1ccc(NC(=O)COC(=O)/C=C/c2ccccc2[N+](=O)[O-])cc1	.	.	5%	0.65	-2.2	.	.	.	-7
Cc1cccc(SCC(=O)Nc2ccc3c(c2)OCCO3)c1	-1.3	i	.	0.69	3.6	-2	-14	-2.8	-3
CCNC(=O)[C@H]1[C@H](CO)[C@H]2Cn3c(ccc(C4=CCCCC4)c3=O)[C@H]2N1C(=O)c1cnccn1	7.4	i	.	.	.	1	6	-0.4	.
C[C@@H]1CN([C@H](C)CO)C(=O)c2cccc(NC(=O)Nc3ccc(C(F)(F)F)cc3)c2O[C@@H]1CN(C)S(=O)(=O)c1ccc(F)cc1	0.1	i	.	.	.	4	4	-0.5	.
OC[C@H]1[C@@H](c2ccc(C#CC3CCCC3)cc2)[C@@H]2CN(CCC(F)(F)F)CCCCN12	22	i	.	.	.	-58	-76	-16	.
COc1ccc2c3c([nH]c2c1)[C@@H](CO)N(C(=O)Nc1cccc(F)c1)CC31CN(CC2CCOCC2)C1	9.8	i	.	.	.	-3	-4	4.3	.
COc1ccc(C(=O)CC(SCC(NC(C)=O)C(=O)O)c2ccc(Cl)cc2)cc1OC (stereo not drawn)	3.8	i	-6%	0.64	0.7	-22	-33	-15	92*
Cc1ccc(CS(=O)(=O)Cc2ccc(C(=O)NCc3ccccn3)o2)cc1	.	.	-2%	0.73	-0.3	.	.	.	0
COc1cc(NS(=O)(=O)c2c(C)[nH]c(C)c2C(=O)N2CCCC2)cc(OC)c1OC	1.0	i	-5%	0.71	-3.0	7	3	-1.7	3
O=C(NC1CCN(C(=S)Nc2ccccc2Cl)CC1)C1CCCCC1	3.0	i	.	0.69	4.9	4	9	-0.6	.

Among those listed so far, these have fluorine.
SMILES	MLL AF4-AF9 inh	FGF22 binding	Vif TR-FRET	E coli growth	HNF4A DNA FP	Ecoli rRNA inh	Ecoli rRNA inh OD600	Ecoli rRNA inh RFP	ALR H2O2 inh
C[C@@H]1CN([C@H](C)CO)C(=O)c2cccc(NC(=O)Nc3ccc(C(F)(F)F)cc3)c2O[C@@H]1CN(C)S(=O)(=O)c1ccc(F)cc1	0.1	i	.	.	.	4	4	-0.5	.
OC[C@H]1[C@@H](c2ccc(C#CC3CCCC3)cc2)[C@@H]2CN(CCC(F)(F)F)CCCCN12	22	i	.	.	.	-58	-76	-16	.
COc1ccc2c3c([nH]c2c1)[C@@H](CO)N(C(=O)Nc1cccc(F)c1)CC31CN(CC2CCOCC2)C1	9.8	i	.	.	.	-3	-4	4.3	.

Carrying on:
SMILES	MLL AF4-AF9 inh	FGF22 binding	Vif TR-FRET	E coli growth	HNF4A DNA FP	Ecoli rRNA inh	Ecoli rRNA inh OD600	Ecoli rRNA inh RFP	ALR H2O2 inh
Cc1c(NC(=O)/C(C#N)=C/c2ccccc2)c(=O)n(-c2ccccc2)n1C	-0.5	i	-6%	0.69	-0.6	14	3	1.4	.
C[C@@H]1CCCCO[C@@H](CN(C)C(=O)Nc2ccc(C(F)(F)F)cc2)[C@@H](C)CN([C@H](C)CO)C(=O)c2cc(NS(=O)(=O)c3ccccc3)ccc2O1	-3.8	i	.	.	.	5	4	-0.4	.
S=c1[nH]c(-c2ccccc2)cn1/N=C/c1cccs1	-11	i	.	.	-1.1	-1	30	15	17
CC(=O)c1cccc(NC(=O)CSc2nc(=O)n(CCN3CCOCC3)c3c2CCCC3)c1	-38	i	-7%	0.63	2.9	0	-5	-1.6	-2
O=C(Cc1ccccc1)N1CC[C@H]2[C@H](CO)Nc3ccc(C#Cc4ccccc4)cc3[C@H]21	1.5	i	.	.	.	-3	-7	5.9	.
C=CCN1C2CCCC1CC(NC(=S)Nc1ccc(Cl)cc1)C2 (stereo not drawn)	7.0	i	-1%	0.72	1.5	5	-3	-1.7	54
O=C(NC1CCC1)[C@@H]1[C@@H](CO)[C@@H]2Cn3c(ccc(C4=CCCC4)c3=O)[C@H]1N2CC1CC1	-0.1	i	.	.	.	-2	-6	-2.4	.
COc1ccc2c3c([nH]c2c1)[C@@H](CO)N(C)CC31CN(S(=O)(=O)c2cn(C)cn2)C1	0.7	i	.	.	.	5	11	-5.7	.
O=S(=O)(Nc1nc2ccccc2nc1N1CCN(c2ccccc2F)CC1)c1ccc(Cl)cc1	.	.	-4%	0.73	-1.9	.	.	.	30
Cc1ccc(Nc2nc(NCc3cccs3)nc3ccsc23)c(C)c1	1.6	i	.	.	1.3	-54	-61	-15	.
COC(=O)C1=C(COc2ccccc2)NC(=O)NC1c1ccc(Br)cc1 (stereo not drawn)	9.1	i	-16%	0.71	3.0	-1	2	1.6	-13
CCOC(=O)N1CCN(C(=O)c2ccc(Cn3c(=S)[nH]c4cc5c(cc4c3=O)OCO5)cc2)CC1	.	.	15%	0.73	1.9	.	.	.	10
COc1ccccc1C(=O)NCCn1cc(SCC(=O)Nc2cc(C)on2)c2ccccc21	.	.	-13%	0.73	-1.8	.	.	.	.
Cc1nc2ccc(NC(=O)COc3cccc(F)c3)cc2s1	-1.6	i	-6%	0.63	2.5	-12	-14	1.0	-10
Clc1ccc(COc2ccccc2-c2ccnc3ncnn23)cc1	-1.8	i	2%	0.68	-2.0	-13	-2	-6.1	5
C[C@@H]1CCCCO[C@H](CN(C)C(=O)Nc2ccccc2)[C@@H](C)CN([C@H](C)CO)C(=O)c2cc(N(C)C)ccc2O1	-2.4	i	.	.	.	-3	5	1.4	.
CCCOc1ccc(C(=O)N(Cc2cccs2)C2CCS(=O)(=O)C2)cc1 (stereo not drawn)	-0.6	i	9%	0.65	0.1	2	0	0.6	-1
COCC(=O)Nc1ccc2c(c1)C(=O)N(C)C[C@@H](OC)[C@H](C)CN(C(=O)c1cccnc1)[C@H](C)CO2	-0.2	i	.	.	.	0	1	3.7	.
COc1ccccc1CNC(=O)CCC(=O)N1CC(C)Sc2ccccc21 (stereo not drawn)	-3.8	i	.	0.71	-1.7	-16	-27	-0.8	.
COc1ccc2c3c([nH]c2c1)[C@@H](CO)N(Cc1cccc(Cl)c1)CC31CN(C)C1	3.2	i	.	.	.	1	2	-1.2	.
CC1(NC(=O)CSc2nnc(-c3c[nH]c4ccccc34)n2C2CC2)CCS(=O)(=O)C1 (stereo not drawn)	-2.1	i	2%	0.72	-3.1	-1	1	-4.2	-6
CN(C)c1ccc2c(c1)[C@@H]1C[C@@H](CC(=O)NCc3ccccc3F)O[C@H](CO)[C@@H]1O2	0.4	i	.	.	.	-2	5	1.6	.
CO[C@H]1CN(C)C(=O)c2ccc(NC(=O)NC(C)C)cc2OC[C@@H](C)NC[C@@H]1C	-2.7	i	.	.	.	0	3	0.5	.
O=C(NCC1COc2ccccc2O1)c1ccco1 (stereo not drawn)	.	.	17%	0.65	-1.1	.	.	.	0
Cc1cc(=O)oc2cc(OCC(=O)NC3CC(C)(C)NC(C)(C)C3)c(Cl)cc12	-3.7	i	.	0.67	1.4	3	4	3.0	-36
Cc1cccc(NC(=O)CNC(=O)[C@H]2O[C@@H](n3ccc(=O)[nH]c3=O)[C@H](O)[C@@H]2O)c1C	-0.6	i	.	.	1.4	.	.	.	.
O=C(/C=C/c1ccccc1)CCN1CCCCC1	0.3	i	-1%	0.69	-0.1	6	11	-3.9	.
O=C(COC(=O)/C=C/c1ccc(Cl)cc1)NC1CCCC1	3.0	i	.	0.69	0.9	6	3	-2.2	.
COc1ccc(CNC(=O)C[C@@H]2C[C@H]3c4cc(NS(C)(=O)=O)ccc4O[C@H]3[C@@H](CO)O2)cc1	-0.2	i	.	.	.	2	3	-0.7	.
COc1ccc(CNC(=O)CN(Cc2ccccc2)C(=O)c2csnn2)cc1	.	.	-4%	0.68	-1.0	.	.	.	1
CC(C)NC(=O)Nc1ccc(Br)cc1Cl	.	.	1%	0.73	-2.3	.	.	.	.
Cc1cccc(CC(=O)NC2CCS(=O)(=O)C2)c1 (stereo not drawn)	-16	i	0%	0.67	1.7	6	11	-1.6	-6
COc1ccc(C2c3[nH]c4ccccc4c3C[C@H]3C(=O)N(C4CCN(Cc5ccccc5)CC4)CC(=O)N23)cc1OC (stereo partly drawn)	16	i	-4%	0.69	-4.7	4	9	35	-17
COc1ccc(N2CSC3=C(C#N)C(c4cccc(OC)c4OC)CC(=O)N3C2)cc1 (stereo not drawn)	-9.6	i	22%	0.73	0.3	-12	2	13	34
Cc1ccc(S(=O)(=O)N(CC(=O)Nc2ccc(Cl)cc2)C(=O)N2CCN(C)CC2)cc1	0.6	i	3%	0.68	1.1	12	8	-1.9	.
CCOc1ccccc1N1CCN(C(=O)c2cc(S(=O)(=O)N(C)C)ccc2N2CCCC2)CC1	4.1	i	-9%	0.7	-0.4	-10	-12	3.7	2
O=C(NCc1cccnc1)C1CCCN(S(=O)(=O)c2ccc(Br)cc2)C1 (stereo not drawn)	.	.	2%	0.78	2.3	.	.	.	3
Cc1noc(C)c1S(=O)(=O)Nc1ccc2c(c1)C(=O)N([C@@H](C)CO)C[C@H](C)[C@H](CN(C)S(C)(=O)=O)OCCCC[C@@H](C)O2	1.9	i	.	.	.	1	23	2.1	.
CCOc1ccccc1N1C(=O)c2ccc(S(=O)(=O)c3ccc(C(=O)O)cc3)cc2C1=O	3.1	i	0%	0.66	-2.1	.	.	.	3
CCOC(=O)N1CCN(C(=O)CCl)CC1	-3.4	i	5%	0.71	2.7	12	3	-0.6	-5
CN(C)S(=O)(=O)c1cccc(NC(=S)NCc2ccco2)c1	-0.5	i	6%	0.64	-1.5	-2	-13	-9.2	-2
CCOC1=C2[C@H](c3ccccc3F)N(S(=O)(=O)c3ccc(C)cc3)C[C@H]2n2c(=O)n(-c3ccccc3)c(=O)n2C1	0.5	i	.	.	4.0	12	7	-0.4	.
CN(C(=O)c1ccccc1C(=O)OCC(=O)NCc1ccccc1)C1CCCCC1	-4.0	i	.	0.7	0.6	-4	-10	-2.2	-1
COc1ccccc1S(=O)(=O)N[C@H]1CC[C@@H](CCNC(=O)C2CCC2)O[C@@H]1CO	-13	i	.	.	.	1	1	-3.1	.
CC1CCCN(C(=O)COC(=O)COc2ccc(Cl)cc2)C1 (stereo not drawn)	-5.1	i	-2%	0.72	4.2	6	9	2.2	-3
Cc1ccc(C(=O)O/N=C(\N)c2ccccn2)c(C)c1	-2.9	i	.	.	-2.6	-11	-2	-0.6	1
Cc1ccccc1CNC(=O)c1ccccc1NS(C)(=O)=O	-2.3	i	15%	0.64	9.1	7	7	1.2	-5
CCC(C)(C)NC(=O)C(c1ccc(F)cc1)N(CCOC)C(=O)CCC(=O)Nc1nccs1 (stereo not drawn)	-1.8	.	.	0.69	-0.8	2	-1	0.6	0
COc1ccc2c(c1)-c1c(ssc1=S)C(C)(C)N2S(=O)(=O)c1ccc(C)cc1	.	.	.	0.78	-1.0	.	.	.	-3
CCCC(C)NC(=O)CSc1nnc(-c2c[nH]c3ccccc23)o1 (stereo not drawn)	-0.4	i	6%	0.71	-4.6	2	-7	0.7	-3

Reprinted from the entries so far, two compounds:
SMILES	MLL AF4-AF9 inh	FGF22 binding	Vif TR-FRET	E coli growth	HNF4A DNA FP	Ecoli rRNA inh	Ecoli rRNA inh OD600	Ecoli rRNA inh RFP	ALR H2O2 inh
COc1ccc(NC(=O)COC(=O)/C=C/c2ccccc2[N+](=O)[O-])cc1	.	.	5%	0.65	-2.2	.	.	.	-7
Cc1cccc(SCC(=O)Nc2ccc3c(c2)OCCO3)c1	-1.3	i	.	0.69	3.6	-2	-14	-2.8	-3

A portion of the library (hit frequency here may not be typical).
